MLL AF4-AF9 inh: inhibitors of AF4 peptide binding to AF9, primary screen, biochemical, AlphaScreen, biotin-AF4 peptide, FLAG-AF9, single point; inhibition, % at 10 µM; 350,000 compounds, 0.47% hits; AID 651704, 2012;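 active = every replicate reaching a set inhibition limit, whatever the replicate mean, cut at about 25% in these data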;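 also: 0% = plate neutral control median and 100% = total signal loss; the record names both 10 and 1 µM as test concentration; the first replicate is given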
Target sequence (P42568 whole entry, looked up): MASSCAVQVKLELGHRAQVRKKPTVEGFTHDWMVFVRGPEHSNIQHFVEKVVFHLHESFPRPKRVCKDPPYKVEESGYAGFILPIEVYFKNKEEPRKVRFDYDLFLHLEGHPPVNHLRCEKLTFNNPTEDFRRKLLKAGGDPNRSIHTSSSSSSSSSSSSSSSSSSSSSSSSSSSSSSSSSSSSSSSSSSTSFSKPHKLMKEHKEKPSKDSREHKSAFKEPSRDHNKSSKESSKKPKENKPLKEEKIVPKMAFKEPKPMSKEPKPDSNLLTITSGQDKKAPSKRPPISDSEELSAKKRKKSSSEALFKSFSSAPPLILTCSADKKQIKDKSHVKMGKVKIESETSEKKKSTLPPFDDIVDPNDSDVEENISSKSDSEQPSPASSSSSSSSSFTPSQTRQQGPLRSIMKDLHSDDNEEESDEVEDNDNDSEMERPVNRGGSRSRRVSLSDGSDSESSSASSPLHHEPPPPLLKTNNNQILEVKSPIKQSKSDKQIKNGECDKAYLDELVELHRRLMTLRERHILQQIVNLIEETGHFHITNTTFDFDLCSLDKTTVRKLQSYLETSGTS
Ecoli rRNA inh: reduced GFP signal of wild-type E. coli, primary screen, bacterial rRNA inhibitor project, GFP/RFP fluorescence, OD600, single point. 350,000 compounds, 1.6% hits. AID 720706, 2013. GFP signal change (wild-type ribosome), % (test concentration not listed). E. coli WT GFP vs humanized-ribosome RFP mutants, 24 h; active compounds read low; DMSO median 0, no signal -100;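 active = significant combined selectivity score with lowered wild-type GFP, culture density cut under 30%, mutant RFP and density less affected; inactive = any of these conditions unmet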; also: one replicate is shown; some compounds called inactive have numbers as strong as hits
FGF22 binding: binders of human FGF22 protein, primary screen, FGF22 synaptogenesis inhibitor project, biophysical, thermal shift, single point | calls only at 9.99 µM | 340,000 compounds, 1.5% hits | recombinant FGF22 thermal shift, SYPRO orange fluorescence; percent of sucrose octasulfate shift, DMSO zero;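 active = melting point raised past a set limit in the mean and every replicate; three in four hits are not shown here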
Target sequence (Q9HCT0 whole entry, looked up): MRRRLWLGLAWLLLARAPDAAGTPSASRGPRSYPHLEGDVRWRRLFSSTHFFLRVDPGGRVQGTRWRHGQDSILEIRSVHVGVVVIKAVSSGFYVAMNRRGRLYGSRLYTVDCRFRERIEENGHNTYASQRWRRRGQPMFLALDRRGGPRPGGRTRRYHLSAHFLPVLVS
Ecoli rRNA inh OD600: recorded beside Ecoli rRNA inh, whose call it bears; OD600 change, %; measured here: OD600 growth;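 optical density of the mix in the first replicate; 0 = DMSO median and -100 = no signal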
Ecoli rRNA inh RFP: second read-out of Ecoli rRNA inh, no call of its own (marks repeat the call); RFP signal change, %; measured here: RFP humanized mutant strains;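 first replicate; 0 = DMSO median and -100 = no signal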
* marks the source's active call; other numbers are inactive results; i = inactive; · = no result given; & = joins results of further samples; ! = a repeat was not active.

SMILES | MLL AF4-AF9 inh | Ecoli rRNA inh | Ecoli rRNA inh OD600 | Ecoli rRNA inh RFP | FGF22 binding
Cc1noc(C)c1NC(=O)N(C)C[C@H]1Oc2ccc(NS(=O)(=O)c3cccs3)cc2C(=O)N([C@H](C)CO)C[C@H]1C | -12.7 | 1.4 | 13.8 | -0.6 | i
COc1ccc(C=NNC(=S)NN=Cc2ccc(OC)c(OC)c2)cc1OC | 5.3 | -9.1 | 7.5 | -2.6 | i
COc1ccc(S(=O)(=O)N(C)C[C@@H]2Oc3ccc(NC(=O)Nc4c(C)noc4C)cc3C(=O)N([C@@H](C)CO)C[C@H]2C)cc1 | 0.8 | 1.0 | 6.8 | -2.1 | i
COc1ccc(NC(=O)N(C)C[C@H]2Oc3ncc(C#CC(C)C)cc3C(=O)N([C@H](C)CO)C[C@@H]2C)cc1 | 0.1 | -0.3 | -5.3 | -4.5 | i
C[C@@H]1CN([C@H](C)CO)C(=O)Cc2cc(NC(=O)CCN3CCOCC3)ccc2O[C@@H]1CN(C)Cc1ccc(Oc2ccccc2)cc1 | 7.7 | -2.8 | -7.5 | 7.6 | i
C[C@H](NC(=O)C[C@H]1C=C[C@@H](NC(=O)C2CC2)[C@@H](CO)O1)c1ccccc1 | 0.3 | 1.8 | 9.4 | 1.2 | i
C[C@@H]1CCCCO[C@H](CN(C)Cc2ccc(C(F)(F)F)cc2)[C@@H](C)CN([C@@H](C)CO)C(=O)c2cc(NC(=O)c3ccncc3)ccc2O1 | 3.0 | 0.4 | -16.2 | 22.2 | i
Cc1cccc(C)c1NC(=O)C(c1ccccc1F)n1c(=O)c(-c2ccccc2)nc2ccccc21 (stereo not given) | 5.5 | 9.4 | 20.8 | 0.1 | ·
COc1ccc(C#Cc2ccc3c(c2)[C@H]2[C@H](CCN2C(=O)Nc2ccc(C(F)(F)F)cc2)[C@@H](CO)N3C)cc1 | 12.7 | -3.1 | 6.2 | -2.7 | i
O=C(Cc1cccnc1)N[C@H]1CC[C@@H](CCNS(=O)(=O)c2ccccc2Cl)O[C@H]1CO | -0.7 | 0.2 | 0.9 | 1.4 | i
Cc1ccc(S(=O)(=O)Nc2ccc3c(c2)CC(=O)N([C@@H](C)CO)C[C@@H](C)[C@@H](CN(C)Cc2ccc(C(=O)Nc4ccccc4N)cc2)O3)cc1 | 5.6 | -5.6 | -1.8 | 4.3 | i
CCNC(=O)c1cc2c(c(-c3cccc(-c4ccccc4F)c3)n1)[C@@H](CCO)N(C(=O)CC)C2 | 16.7&2.9 | -3.8&0.2 | 1.2&-5.2 | 9.8&5.4 | i
C[C@@H]1CN([C@@H](C)CO)C(=O)c2cccc(NC(=O)c3cnccn3)c2O[C@H]1CN(C)Cc1ccc(Cl)c(Cl)c1 | 4.0 | -18.1 | -27.6 | -3.4 | i
C[C@@H]1CN([C@@H](C)CO)C(=O)c2cccc(NC(=O)Nc3ccc4c(c3)OCO4)c2O[C@@H]1CN(C)Cc1ccc(-c2ccccc2)cc1 | 12.0 | -5.5 | -5.3 | 10.1 | i
COc1ccc(NC(=O)Nc2ccc3c(c2)C(=O)N([C@H](C)CO)C[C@@H](C)[C@@H](CN(C)S(=O)(=O)c2cccs2)OCCCC[C@H](C)O3)cc1 | -1.9 | -4.2 | 0.1 | -0.9 | i
C[C@@H]1CN([C@H](C)CO)C(=O)c2cc(NC(=O)Cc3cn(C)c4ccccc34)ccc2O[C@H]1CN(C)Cc1ccc(C(=O)O)cc1 | -0.1 | 3.6 | 2.3 | -1.1 | i
C[C@@H]1CN([C@H](C)CO)C(=O)c2cccc(NC(=O)Nc3cccc4ccccc34)c2O[C@@H]1CN(C)S(=O)(=O)c1cn(C)cn1 | -6.5 | -1.5 | -5.3 | 0.0 | i
CC(=O)Nc1cc(-c2ccc(C(=O)N3CCOCC3)cc2)cn2c(-c3ccccc3)cnc12 | 1.1 | -1.0 | 2.2 | 3.9 | i
COc1ccc(S(=O)(=O)N(C)C[C@H]2Oc3ccc(NS(=O)(=O)c4cccs4)cc3CC(=O)N([C@H](C)CO)C[C@@H]2C)cc1 | 0.4 | -3.9 | -14.2 | 0.0 | i
N#C[C@H]1[C@H](c2ccc(-c3ccccc3F)cc2)[C@H](CO)N1C(=O)Cc1ccccc1 | -1.6 | -7.3 | -54.4 | 7.2 | i
CSCCC(NC(=O)COc1ccccc1)C(=O)OCc1ccc(Cl)cc1 (stereo not given) | 1.1 | 1.5 | 7.6 | 2.6 | i
CN(C)C(=O)c1cccc(-c2ccccc2[C@@H]2[C@@H](C#N)N(C(=O)C3CCCCC3)[C@H]2CO)c1 | -3.2 | 0.9 | 19.1 | -2.0 | i
CCCN(C)C[C@@H]1Oc2ncc(C#CC3CCCCC3)cc2C(=O)N([C@H](C)CO)C[C@H]1C | 4.7 | -1.1 | 3.1 | -4.7 | i
O=C(Nc1ccc(F)cc1)N1CCCCN2[C@@H](CO)[C@H](c3ccc(C#Cc4ccccc4)cc3)[C@@H]2C1 | 1.6 | -56.4 | -71.6 | -12.8 | i
O=C(Nc1cccc(F)c1)N[C@@H]1CC[C@@H](CCn2cc(Cc3ccccc3)nn2)O[C@H]1CO | 0.4 | -8.6 | -6.5 | -0.2 | i
CCS(=O)(=O)N1CCCCN2[C@H](CO)[C@@H](c3ccc(-c4cccc(C#N)c4)cc3)[C@@H]2C1 | -2.8 | -3.6 | -6.2 | 6.3 | i
CC(C)NC(=O)N(C)C[C@H]1Oc2ccc(NC(=O)Cc3ccccc3)cc2C(=O)N([C@H](C)CO)C[C@H]1C | -1.5 | 5.0 | 2.4 | 0.3 | i
CCOc1ccc(/C=N/NC(=O)c2ccncc2)cc1OC | -3.2 | 4.8 | 4.0 | 0.2 | i
CCOC(=O)[C@]12CCCC=C1N(Cc1ccccc1)C(=O)[C@H](CC(=O)N1CCCCCC1)C2 | -4.0 | -1.1 | 3.3 | -1.4 | i
Cc1ccc(Cc2c(-c3ccc(F)cc3)nc3c(Cl)cc(C(F)(F)F)cn23)cc1 | -2.6 | -4.6 | -5.2 | -7.6 | i

Overlap with the part before: two compounds, then new ones.
SMILES | MLL AF4-AF9 inh | Ecoli rRNA inh | Ecoli rRNA inh OD600 | Ecoli rRNA inh RFP | FGF22 binding
CCOC(=O)[C@]12CCCC=C1N(Cc1ccccc1)C(=O)[C@H](CC(=O)N1CCCCCC1)C2 | -4.0 | -1.1 | 3.3 | -1.4 | i
Cc1ccc(Cc2c(-c3ccc(F)cc3)nc3c(Cl)cc(C(F)(F)F)cn23)cc1 | -2.6 | -4.6 | -5.2 | -7.6 | i
COc1ccc(CN2C(=O)c3ccccc3C2c2nnnn2-c2ccc3c(c2)OCCO3)cc1 (stereo not given) | 3.0 | -22.1 | -46.4 | -6.8 | i
O=C(CCCOc1ccc(Cl)cc1Cl)NC(Cc1ccccc1)C(=O)O (stereo not given) | -2.0 | -24.4 | -41.6 | -4.2 | i
O=C1C=C(C2CCCCC2)C(=O)c2ccccc21 | 1.2 | -10.6 | -35.3 | -1.1 | i
O=C(c1ccccn1)N1CC(=O)N2[C@@H](CO)[C@@H](c3ccc(C#CC4CCCC4)cc3)[C@@H]2C1 | -0.6 | -1.5 | 4.6 | 3.0 | i
CCCNC(=O)N[C@H]1CC[C@H](CCn2cc(C3CCCCC3)nn2)O[C@H]1CO | -13.5 | 0.9 | -4.3 | -3.6 | i
CCCC(O)C#Cc1cnc2c(c1)C(=O)N([C@H](C)CO)C[C@H](C)[C@H](CN(C)C(=O)NC1CCCCC1)O2 (stereo not given in full) | -1.6 | -0.5 | -9.7 | -1.9 | i
O=C(NCC1CC1)C1Cc2c(-c3ccccc3Oc3ccccc3)ccnc2O1 (stereo not given) | 1.3 | -16.5 | -35.5 | -2.7 | i
C[C@@H]1CN([C@@H](C)CO)C(=O)CCCn2nncc2CO[C@H]1CN(C)C(=O)Nc1ccc(C(F)(F)F)cc1 | -1.5&0.8 | -16.6*! | -10.2*! | 5.2*! | i
C[C@@H]1CN([C@H](C)CO)C(=O)c2cc(NC(=O)Nc3ccc(F)cc3)ccc2O[C@@H](C)CCCCO[C@H]1CN(C)C(=O)NC1CCCCC1 | 2.9 | 4.2 | 3.1 | -0.2 | i
C[C@@H]1CN([C@@H](C)CO)C(=O)c2cc(C3=CCCCC3)cnc2O[C@H]1CN(C)C(=O)c1ccccn1 | -0.4 | 0.2 | -0.4 | -5.2 | i

Look-ups from the entries so far:
`CCOC(=O)[C@]12CCCC=C1N(Cc1ccccc1)C(=O)[C@H](CC(=O)N1CCCCCC1)C2` – MLL AF4-AF9 inh = -4.0
`C[C@@H]1CCCCO[C@H](CN(C)Cc2ccc(C(F)(F)F)cc2)[C@@H](C)CN([C@@H](C)CO)C(=O)c2cc(NC(=O)c3ccncc3)ccc2O1` – Ecoli rRNA inh = 0.4
`O=C(NCC1CC1)C1Cc2c(-c3ccccc3Oc3ccccc3)ccnc2O1` (stereo not given) – MLL AF4-AF9 inh = 1.3
`Cc1noc(C)c1NC(=O)N(C)C[C@H]1Oc2ccc(NS(=O)(=O)c3cccs3)cc2C(=O)N([C@H](C)CO)C[C@H]1C` – Ecoli rRNA inh RFP = -0.6

Carrying on.
SMILES | MLL AF4-AF9 inh | Ecoli rRNA inh | Ecoli rRNA inh OD600 | Ecoli rRNA inh RFP | FGF22 binding
CC1(C(=O)Nc2ccc3ccccc3c2)CCC(=O)N1C1CC1 (stereo not given) | -1.3 | 0.5 | -1.8 | -4.2 | i
C[C@H]1CN([C@@H](C)CO)C(=O)CCCn2nncc2CO[C@@H]1CN(C)S(=O)(=O)c1ccc(F)cc1 | -0.7 | -1.5 | -8.0 | -1.1 | i
Cc1ccccc1NC(=O)C(C)OC(=O)C1CCCO1 (stereo not given) | -1.5 | 7.4 | 32.1 | -0.6 | i
O=C(C[C@H]1CC[C@H](NC(=O)c2ccccc2)[C@H](CO)O1)Nc1ccc(-c2ccccc2)cc1 | -0.8 | -4.0 | -1.6 | -2.0 | i
COc1ccc(CN(C)C[C@@H]2Oc3ccc(NC(=O)Nc4ccc(F)cc4)cc3CC(=O)N([C@@H](C)CO)C[C@H]2C)cc1 | 4.8 | -0.5 | -1.3 | -0.1 | i
COC(=O)CCC(C)C1CCC2C3CCC4CC(O)CCC4(C)C3CC(O)C12C (stereo not given) | 0.0 | -40.0 | -79.8 | -28.5 | i
NC(=O)c1cccc(-c2ccnc3c2CC(C(=O)NCCc2ccccc2)O3)c1 (stereo not given) | -5.2 | 4.5 | -0.8 | -3.0 | i
OC[C@H]1[C@H]2c3ccccc3NC[C@H]2N1Cc1ccccc1Cl | 3.7 | 0.6 | -1.9 | 1.1 | i
O=C(C[C@@H]1C[C@H]2c3cc(NC(=O)NC4CCCC4)ccc3O[C@H]2[C@@H](CO)O1)NCc1cccnc1 | 1.3 | 2.0 | 0.7 | 0.1 | i
C[C@H]1CCCCO[C@H](CN(C)CC2CC2)[C@@H](C)CN([C@@H](C)CO)C(=O)c2cc(NC(=O)c3ccccc3)ccc2O1 | 4.4 | 2.2 | -2.0 | -0.4 | i
COc1ccccc1CNC(=O)C[C@H]1CC[C@H]2[C@@H](COC[C@H](O)CN2C(=O)Nc2ccc(C(F)(F)F)cc2)O1 | -0.3 | -53.5 | -79.3 | -15.1 | i
COc1ccc(NC(=O)Nc2ccc3c(c2)CC(=O)N([C@@H](C)CO)C[C@H](C)[C@H](CN(C)Cc2ccccc2)O3)cc1 | 1.9 | -4.9 | -11.2 | 1.2 | i
CN(C)S(=O)(=O)c1cccc(C(=O)Nc2cc(S(=O)(=O)N3CCOCC3)ccc2O)c1 | 7.7 | 0.3 | 2.7 | 1.3 | i
C[C@H]1CN([C@@H](C)CO)C(=O)Cc2cc(NS(C)(=O)=O)ccc2O[C@H]1CN(C)Cc1ccc(-c2ccccc2)cc1 | 6.1 | -54.3 | -74.7 | -13.1 | i
Cn1cnc(S(=O)(=O)N[C@@H]2CC[C@@H](CC(=O)Nc3ccc(-c4ccccc4)cc3)O[C@@H]2CO)c1 | -0.6 | -0.3 | -5.4 | -0.5 | i
C[C@@H]1CN([C@@H](C)CO)C(=O)Cc2cc(NC(=O)C3CC3)ccc2O[C@H]1CN(C)Cc1ccc(C(F)(F)F)cc1 | 5.2 | 2.2 | -37.1 | 15.3 | i
COC(=O)C[C@H]1CC[C@@H]2[C@H](COc3ccc(NC(=O)Nc4cccc(C)c4)cc3C(=O)N2C)O1 | 4.7 | -2.1 | -5.1 | 1.1 | i
CC(C)Cn1cnc2c(SCc3ccccc3F)nc(N)nc21 | -5.4 | -36.2 | -61.9 | -2.9 | i
C[C@H](CO)N1C[C@H](C)[C@@H](CN(C)C(=O)Nc2ccccc2)Oc2c(NC(=O)c3nc4ccccc4s3)cccc2C1=O | -0.7 | -5.0 | -2.7 | 0.8 | i
CN(C)C(=O)c1cccc(-c2ccc([C@H]3[C@H]4CN(C(=O)Cc5ccccc5)CC(=O)N4[C@H]3CO)cc2)c1 | 1.4 | 2.2 | 10.9 | -0.7 | i
CC(NC(=O)C1CCN(Cc2ccc(Oc3ccccc3)cc2)CC1)c1cccc2ccccc12 (stereo not given) | -0.3 | -42.3 | -42.1 | -11.1 | i
COc1ccc(C2=Nc3ccccc3NC(=O)C2N(Cc2ccc(F)cc2)C(=O)c2ccco2)cc1 (stereo not given) | 4.4 | -10.3 | -22.1 | 3.0 | i

An excerpt (hit frequency here may not be typical).
